Source: PubChem BioAssay (National Center for Advancing Translational Sciences (NCATS))
Menin MLL FP FL: displaces fluorescein MLL peptide from human menin. Fluorescence polarization, fluorescein-MLL peptide displacement from menin. AID 1766. FP activity change, % at 61.4 µM. 290,000 tested, under 10 active; inconclusive = falling polarisation curve, or a change in total fluorescence; inactive = total fluorescence flat and polarisation flat or rising; no compound was filed as active; the % refers to the polarisation; negative = inhibition;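 note: % of control where 0% means no effect; inhibitors lower the polarisation; unlabelled MLL peptide was the positive control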
D2 ag: human D2 receptor agonism in beta-arrestin assay; DiscoveRx PathHunter D2 beta-arrestin, luminescence, 90 min; 100% = 57 uM dopamine signal; activation, % (no concentration beside the values); 360,000 compounds, 0.084% hits; AID 624465; in the data active = activation above about 40%; inconclusive = about 15% to 40%; inactive = below about 15%; note: compound concentration not given in the record; the text of the record calls up to 30% inactive
Target sequence (P14416 whole entry, looked up): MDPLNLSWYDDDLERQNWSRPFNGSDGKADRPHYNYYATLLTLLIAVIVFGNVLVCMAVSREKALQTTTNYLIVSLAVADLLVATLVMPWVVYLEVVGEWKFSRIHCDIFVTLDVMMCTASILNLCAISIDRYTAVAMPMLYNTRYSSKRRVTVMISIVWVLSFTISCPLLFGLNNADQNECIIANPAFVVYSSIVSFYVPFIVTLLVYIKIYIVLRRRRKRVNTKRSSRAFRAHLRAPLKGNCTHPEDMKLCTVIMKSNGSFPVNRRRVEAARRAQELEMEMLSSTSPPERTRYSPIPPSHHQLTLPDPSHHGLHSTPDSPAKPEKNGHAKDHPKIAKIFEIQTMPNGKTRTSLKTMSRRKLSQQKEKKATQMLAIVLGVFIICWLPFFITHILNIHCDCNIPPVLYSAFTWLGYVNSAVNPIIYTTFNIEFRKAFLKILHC
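DiscoveRx PathHunter D2 beta-arrestin cells (2,100/well) attached overnight, then compound-stimulated 90 min at 37 C in HBSS/10 mM HEPES/0.1% Tween-20 buffer; beta-galactosidase complementation read by luminescence after 1 h at ambient temperature. Dopamine 57 uM final (EC100) as control.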
Sfp inh: inhibitors of Bacillus subtilis Sfp phosphopantetheinyl transferase; Q9F4F7; Biochemical Sfp PPTase activity, qHTS; Potency, µM, inactives show max response, negative = inhibition, usual class: inhibitors; 310,000 compounds, 3.5% hits; AID 1490; active = well fitted inhibition curve with a large enough effect; inconclusive = small, poorly fitted or top-dose-only effect, or another doubt; inactive = no such curve, though single readings can be large or run the other way;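 note: the enzyme is Sfp with the accession as filed and its product quenches rhodamine fluorescence; potency is the fitted concentration of half-maximal effect; 0% = enzyme reaction without inhibitor and -100% = no enzyme wells; top concentration of the series not given in the record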
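Sfp 15 nM + cpd, 15 min RT; start w/ rhodamine-CoA 5 uM, BHQ-2-YbbR 12.5 uM (final); 50 mM Hepes pH 7.6, 10 mM MgCl2, 0.01% NP-40, 0.01% BSA; read 525/598 nm at 0 and 30 min.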
gsp ag: gsp mutant agonism | AID 624287 | Potency, µM (titrated, usually from 76.9 µM), for the others: at the top dose activation (cAMP increase), most hits filed as activators | gsp mutant cells, cAMP HTRF, 30 min; control for the full effect not named in the record | 340,000 compounds, 0.13% hits; active = well fitted activation curve with a large enough effect; inconclusive = small, poorly fitted or top-dose-only effect, or another doubt; inactive = no such curve, though single readings can be large or run the other way; cell line not stated here;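 note: phosphodiesterase inhibitor Ro 20-1724 added with compounds to block cAMP breakdown; potency is the fitted concentration of half-maximal effect; nearly all actives have a fitted effect of over 60% in size; about a fifth of the inactives were tested at one dose only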
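Cells stably selected in G418 were plated at 2000/well, grown 16-24 hr, then given compounds in DMSO with the PDE inhibitor […] (300 uM solution added) for 30 min at 37C; cAMP was read by HTRF.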
PINK1 expr mod: modulators of PINK1 expression. AID 624263. PINK1 immunofluorescence, high-content cytometry, 24 h. Potency, µM (doses to about 76.6 µM), without a hit: at the highest dose activation (PINK1 increase), actives largely listed as activators. 410,000 compounds, 0.2% hits; active = well fitted activation curve with a large enough effect; inconclusive = small, poorly fitted or top-dose-only effect; inactive = flat fitted curve, though single readings scatter; cell line not stated here;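 note: potency is the fitted concentration of half-maximal effect; % of control where 0% means no effect; nearly all actives have a fitted effect of over 65% in size; a mitochondrial uncoupler was the plate control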
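Fluorescence from anti-PINK1 antibody, together with nuclear and cell stains, was scanned on a laser-scanning cytometer. Before staining, stable-line cells were incubated 24 hours with compounds at 5 concentrations; primary antibody 12 h at 10 degrees C.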
gsp antag: antagonizes gsp, the McCune-Albright syndrome mutation; gsp-mutant cells, cAMP HTRF, 30 min; control for the full effect not named in the record; Potency, µM (top dose mostly 76.9 µM), inactives show top-dose activity change, negative = inhibition, usual class: inhibitors; 340,000 compounds, 0.4% hits; AID 624288; active = falling curve of any shape with a large fitted effect; inconclusive = falling curve, mostly with a smaller effect; inactive = flat or rising curve; cell line not stated here;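 note: intracellular cAMP measured with PDE inhibitor Ro 20-1724 present during compound exposure; potency is the fitted concentration of half-maximal effect; % is set by controls: 0 for no effect and ±100 for the full control effect; nearly all actives have a fitted effect of over 65% in size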
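Measurement of cellular cAMP by homogeneous time-resolved fluorescence following a 30 min compound exposure at 37C. The PDE inhibitor […] was present throughout; the assay buffer was DPBS with 0.05% BSA and 0.005% Tween 20.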
ClpP mod: qHTS Assay for Activators of ClpP; purified B. subtilis ClpP, FRET peptide cleavage, 20 min; Potency, µM (series often up to 57.5 µM), for inactives: at the highest dose activity change, negative = active; 340,000 compounds, 1.9% hits; AID 651965, 2013; active = well fitted falling curve with a large enough effect; inconclusive = small, poorly fitted or top-dose-only effect; inactive = no such curve, though single readings can be large or run the other way; note: potency is the fitted concentration of half-maximal effect; the source files actives as falling curves though it sought activators and does not explain the sign; nearly all actives have a fitted effect of over 65% in size; many hits overshoot -100%
Target sequence (P80244 whole entry, looked up): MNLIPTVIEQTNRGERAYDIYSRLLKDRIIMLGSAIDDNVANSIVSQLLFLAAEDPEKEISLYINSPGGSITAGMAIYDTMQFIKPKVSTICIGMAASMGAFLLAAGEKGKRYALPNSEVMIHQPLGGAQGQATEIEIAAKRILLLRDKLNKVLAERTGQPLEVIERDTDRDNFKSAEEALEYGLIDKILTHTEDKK
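FRET quenching reversal measured ClpP activation: 10 microg/mL B. subtilis ClpP at pH 8 with the FRET-FV decapeptide, read at 430 nm after 320 nm excitation. The 20-min minus 0-min signal was scaled between DMSO/no-enzyme wells and ADEP (5.8 microM final).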
Starred values were filed as active, the others as inactive; ? = inconclusive; / = no result given; [ ] = another dose, or the depositor's remark.

SMILES	Menin MLL FP FL	D2 ag	Sfp inh	gsp ag	PINK1 expr mod	gsp antag	ClpP mod
Cc1cccc(OCCC(=O)NCC(c2ccco2)N2CCCCC2)c1 (configuration not stated)	1.5	-4.5	9%	-38%[inhibitor]	2.8%	5%	1.0%
Cc1cc(OC(=O)c2ccco2)c2c(C)cc(=O)oc2c1	-1.0	-0.8	11%	-25%	1.3%[38.3 µM]	6%	-10%
CCN(CC(=O)Nc1ccc2c(c1)OCCO2)S(=O)(=O)c1cccs1	3.9	-2.3	10%	-44%[inhibitor]	2.3%	14%	-0.9%
COc1ccc(-c2nc3ccccc3[nH]2)cc1	-0.1	0.5	8%	-3%	-0.4%[38.3 µM]	-7%	25µM*
Nn1c(-c2cccc([N+](=O)[O-])c2)nc2ccccc2c1=O	-12	-7.1	3%	28%	-0.1%	6%	/
CC(C(=O)NCCCc1ccccc1)c1ccc([N+](=O)[O-])cc1 (configuration not stated)	2.8	-5.2	10%	-7%[15.4 µM]	0.1%	4%	/
COc1ccccc1OCCCCn1ncc2ccc(OC)c(OC)c2c1=O	-0.3	2.5	-7%	-12%	-0.3%	-1%	?
NNc1nc2c(-c3cccc(C(F)(F)F)c3)nnn2c2ccccc12	17	?	-1%	24%	12%	?	/
COc1ccccc1C(=O)NCc1ccccn1	-2.5	2.7	20%	0%	0.5%	-1%	-1.0%
Cn1c(=O)oc2cc(S(=O)(=O)N3CCCC(C(=O)Nc4ccc5c(c4)OCCO5)C3)ccc21 (configuration not stated)	3.4	0.2	-2%	12%	2.6%	-10%	0.7%
COc1ccc(-c2nnc(-c3ccccc3O)o2)cc1	-2.1	2.8	11%	13%	9.4%	-1%	/
O=C(O)c1ccc(NC(=O)C2CCN(S(=O)(=O)c3ccc4c(c3)OCCO4)CC2)cc1	/	-4.1	/	?	1.1%	/	-0.2%
COc1cccc(OCC(=O)NNC(=O)c2ccc(-c3ccccc3)cc2)c1	2.2	-1.7	1%	10%	-2.9%	5%	-1.1%
CC(OC(=O)c1ccco1)C(=O)Nc1ncc(Cl)cc1Cl (configuration not stated)	/	-2.1	/	-31%[inhibitor]	1.5%	1%	-1.5%
C=Cc1ccc(CN2CCCN(Cc3ccc(Cl)cc3)S2(=O)=O)cc1	0.2	-3.3	-1%	22%	0.0%	-9%	-1.6%
CC(=O)N(/N=C/c1cccc(C)c1)c1nc(-c2ccc(Br)cc2)cs1	4.8	-1.0	13%	-27%	7.5%	7%	-0.4%
CCC(C)NC(=O)CSc1nc2c(sc3ccccc32)c(=O)n1CCCN1CCOCC1 (configuration not stated)	4.3	-3.0	16%	16%	/	1%	-1.7%
Cc1cccc(CN2CCN(C3CN(Cc4ccc([N+](=O)[O-])cc4)S(=O)(=O)C3)CC2)c1 (configuration not stated)	/	6.3	/	/	2.0%	/	1.4%
COc1cc2c(cc1OC)[C@@H](Cc1ccc(OCCC#N)cc1)N(C)CC2	-0.2	-1.7	13%	-1%[15.4 µM]	0.1%	6%	-3.0%
COc1ccc2c(C(=O)CN3CCN(c4ccccc4)CC3)c[nH]c2c1	?	9.9	9%	-2%	26%	9%	-2.8%
S=c1[nH]nc(C2CCCCC2)n1/N=C/c1ccncc1	-1.7	-2.9	40µM*	3%[15.4 µM]	-0.5%	-12%	/
Cc1ccc(SC(C)C(=O)Nc2ccncc2)cc1 (configuration not stated)	-1.8	-1.3	11%	-37%[inhibitor]	3.4%[38.3 µM]	-1%	-0.6%
O=C(NNC(=S)NC(=O)c1ccccc1[N+](=O)[O-])c1ccccc1Cl	6.1	-5.2	8%	-84%[inhibitor]	7.7%	0%	1.1%
O=C(N/N=C/C=C/c1ccco1)C(O)c1ccccc1 (configuration not stated)	/	-2.4	/	-47%[inhibitor]	3.5%[38.3 µM]	8%	-3.0%
C=CCn1c(CCC(O)COCCC)n[nH]c1=S (configuration not stated)	-2.3	-1.1	-3%	0%[15.4 µM]	0.0%	-4%	/
Cc1cccc(C(=O)OCC(=O)NC2CC2)c1O	/	-0.6	/	0%	1.6%	-2%	/
CCOc1ccc(S(=O)(=O)N2CCOCC2)cc1NC(=O)CCOc1ccc(C(C)(C)C)cc1	/	-1.5	/	8%	13%	-7%	-2.5%
Cc1noc(/C=C/N(C)C)c1S(=O)(=O)N1CCC(C(=O)O)CC1	1.5	0.1	12%	-23%	0.3%	8%	0.3%
COc1ccccc1NC(=O)COC(=O)/C=C/c1cccs1	/	2.8	/	12%	0.5%	6%	-1.2%
CCCN(C(=O)c1cccc(S(=O)(=O)N2CCN(Cc3ccccc3)CC2)c1)C1CCS(=O)(=O)C1 (configuration not stated)	/	-2.9	/	12%	2.8%	1%	-0.3%
Cc1ccc(OCC(O)Cn2c(=N)n(CCN3CCOCC3)c3ccccc32)cc1 (configuration not stated)	1.5	-3.8	10%	-48%[inhibitor]	0.2%	11%	-0.5%
COc1cc(/C=N/NC2=NC(C)(C)Cc3ccccc32)cc(OC)c1OC	-7.1	-1.6	-8%	-4%[15.4 µM]	2.0%	2%	/
OC(CC(O)c1ccccc1)c1ccccc1 (configuration not stated)	/	8.3	/	/	1.2%	11%	0.4%
COc1ccc(CN=C(N)N=C(N)N)cc1Cl	3.8	-5.5	18%	5%[15.4 µM]	-0.5%	/	/
O=C(Cn1cc(C(F)(F)F)cc(Cl)c1=O)Nc1cccc(S(=O)(=O)N2CCCCC2)c1	/	3.0	/	27%	1.6%	-12%	-2.5%
COc1ccccc1/C=C/C=N/NC(=O)Cc1cccn1C	3.9	-3.6	-7%	-12%	1.6%	-9%	-8.8%

Part of the list above, with bars between the fields.
SMILES | Menin MLL FP FL | D2 ag | Sfp inh | gsp ag | PINK1 expr mod | gsp antag | ClpP mod
CCCN(C(=O)c1cccc(S(=O)(=O)N2CCN(Cc3ccccc3)CC2)c1)C1CCS(=O)(=O)C1 (configuration not stated) | / | -2.9 | / | 12% | 2.8% | 1% | -0.3%
COc1ccc(CN=C(N)N=C(N)N)cc1Cl | 3.8 | -5.5 | 18% | 5%[15.4 µM] | -0.5% | / | /

The list continues.
SMILES	Menin MLL FP FL	D2 ag	Sfp inh	gsp ag	PINK1 expr mod	gsp antag	ClpP mod
O=C(CC1SC(N2CCCCC2)=NC1=O)Nc1ccc(C(=O)NCc2ccccc2)cc1 (configuration not stated)	/	-0.1	/	-19%	1.8%	10%	0.4%
C=CCn1c(/N=C/c2ccc3c(c2)OCO3)nc2ccccc21	0.3	-2.9	12%	9%	/	7%	-4.1%
CCN(CC)C(=O)CSC(=Nc1ccccc1F)NC#N	?	-1.2	-8%	11%	0.0%	-1%	2.2%
O=C(NCCN1CCOCC1)c1cc(S(=O)(=O)Nc2ccccc2F)c(Cl)cc1Cl	3.2	-0.5	13%	?	0.3%	-19%	-0.2%
O=C(CN(c1ccc(F)cc1)S(=O)(=O)c1ccccc1)N1CCOCC1	/	-0.5	/	?	7.9%	12%	1.3%
O=C(N/N=C/c1ccc[nH]1)c1ccc(O)cc1	4.9	1.4	5%	-3%	0.3%	-3%	/
CCCCOc1ccc(C(O)(CCN2CCOCC2)c2ccccc2)cc1 (configuration not stated)	-0.1	-4.8	1%	-14%	18%	8%	-1.6%
CN(Cc1ccccc1)C(=O)CCNC(=O)Cn1cnc2ccccc2c1=O	0.8	-1.1	7%	6%	-1.2%	5%	-1.0%
COc1ccc(C)cc1NC(=O)CN(c1ccc(F)cc1)S(C)(=O)=O	1.0	-1.6	10%	-48%[inhibitor]	1.6%	-1%	-0.4%
COc1ccc(CN2CCNC(=O)C2CC(=O)NC2CCOCC2)c(F)c1 (configuration not stated)	/	-1.9	4%	?	-0.9%	-5%	-12%
COc1cccc(OC)c1C(=O)Nc1c(C(=O)N2CCN(C)CC2)oc2ccccc12	-1.3	-4.4	13%	2%	4.3%	0%	-4.2%
CCCCCCCCSc1nnc(-c2ccc(OC)cc2)o1	-1.9	4.4	14%	13%	6.2%	4%	-11%
Cc1ccc(NS(=O)(=O)c2ccc(C(=O)NCCCN3CCCC3=O)cc2)cc1C	/	-4.5	/	-3%	1.7%	-1%	0.8%
c1ccc(-c2nnc(C3CC(c4ccncc4)=NO3)o2)cc1 (configuration not stated)	/	0.9	/	/	0.4%	7%	-0.5%
Nc1nnc(SCC(=O)Nc2ccc3nc(SCC(=O)Nc4ccccc4)sc3c2)s1	-2.4	3.2	10%	2%	3.7%	?	0.5%
C/C(=N\NC(=O)C1(C)CC1(Br)Br)c1cccc(NC(=O)C2CCC2)c1 (configuration not stated)	3.2	-4.5	-4%	0%	3.6%	-12%	22µM*
COc1ccc(-n2nnnc2SCC(=O)N2CCCC2)cc1OC	-0.5	-0.9	12%	-7%	2.9%[38.3 µM]	4%	-1.5%
Cc1[nH]n(-c2ccccc2)c(=O)c1/C=N/NC(=O)c1ccccc1F	1.6	1.8	18%	14%	-1.3%	?	-7.2%
CN(C)/C(Cn1cncn1)=C1/N=C(c2c(F)cccc2F)OC1=O	-4.0	-3.4	-7%	-6%	-0.9%	-2%	0.3%
CC(=O)Nc1ccc(S(=O)(=O)Nc2ccc(-n3cnnn3)cc2)cc1	/	-2.0	/	9%	-0.6%	7%	0.0%
COc1cc(C(=O)OCC(=O)N2CCCC2=O)cc(OC)c1C	/	-3.0	/	2%	0.2%	6%	-13%
CCOc1ccc(NC(=O)COC(=O)c2cc(S(=O)(=O)N3CCCC3)ccc2C)cc1	/	1.0	/	8%	1.4%	-28%	2.1%
Cc1ccc(S(=O)(=O)N2CCSC2C(=O)O)cc1 (configuration not stated)	1.0	2.9	18%	7%	-1.6%	16%	3.6%
C=CCn1c(=O)c2c(nc3n2CC(C)CN3c2cccc(OC)c2)n(C)c1=O (configuration not stated)	1.4	-9.0	5%	-12%	0.8%	-8%	-11%
Cc1ccc(C(=O)Nc2ccc(Cl)cc2C)c(Cl)c1	-3.3	1.2	15%	-10%[15.4 µM]	0.5%	-3%	/
Cc1oc(-c2ccc(Cl)cc2)nc1CN1CCC(C(=O)NCc2cccs2)CC1	6.0	-3.3	-7%	-24%	-5.0%	-2%	0.3%
